Polio RdRp inh: poliovirus RNA polymerase inhibition | poliovirus polymerase elongation, fluorescence polarization; hits give low values | % elongation, % (compound at 16.7 µg/mL) | P03300 | 150,000 tested, 0.66% active; in the data active = % elongation below about 90%; also: some results filed as inactive read as strong as hits
Target sequence (P03300 1749-2209 limits assumed): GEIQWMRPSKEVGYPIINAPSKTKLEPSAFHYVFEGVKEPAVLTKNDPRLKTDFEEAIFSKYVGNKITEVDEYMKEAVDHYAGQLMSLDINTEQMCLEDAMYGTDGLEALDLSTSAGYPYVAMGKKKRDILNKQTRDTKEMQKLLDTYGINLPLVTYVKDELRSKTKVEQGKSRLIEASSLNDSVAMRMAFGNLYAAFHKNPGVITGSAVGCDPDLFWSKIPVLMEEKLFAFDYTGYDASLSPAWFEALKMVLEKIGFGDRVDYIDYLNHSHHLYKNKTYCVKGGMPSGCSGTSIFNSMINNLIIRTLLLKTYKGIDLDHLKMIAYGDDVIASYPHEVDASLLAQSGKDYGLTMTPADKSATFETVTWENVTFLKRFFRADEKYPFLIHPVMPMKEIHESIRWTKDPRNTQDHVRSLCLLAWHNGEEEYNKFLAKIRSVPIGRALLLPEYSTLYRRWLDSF
Polio RdRp inh intensity: also measured in Polio RdRp inh; calls as there; % elongation; measured here: total intensity read-out; formula for this scale not given here;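 total fluorescence in place of polarization; lower means less elongation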
An asterisk follows results filed as active. Some of the compounds tested; count on the stated rates, not on these rows.

Screens in order: Polio RdRp inh, Polio RdRp inh intensity
1: Cc1cc(C)c2c(c1)c(C)cc1nnc(SCc3ccccc3C#N)n12
  100, 107
2: O=C(CCC1N=C2c3ccccc3N=C(SCc3ccc(F)cc3)N2C1=O)N1CCN(c2ccccc2)CC1 (stereo not given)
  112, 115
3: Cn1cnc(S(=O)(=O)N2CCCC(C(=O)Nc3cccc(C#N)c3)C2)c1 (stereo not given)
  110, 104
4: CCn1cc(C(=O)NCCc2ccc(OC)c(OC)c2)c(=O)c2cc(S(=O)(=O)N3CCOCC3)ccc21
  105, 103
5: COc1ccc(CCNC(=O)Cn2ncc3c(C)n(Cc4ccccc4F)c(C)c3c2=O)cc1OC
  109, 108
6: COc1ccc(NC(=O)C2CCN(S(=O)(=O)c3c(C)noc3/C=C/c3cccs3)CC2)cc1Cl
  105, 112
7: COc1ccc(CCNC(=O)Cc2ccc(NC(=O)N3CCSc4ncccc43)cc2)cc1OC
  98, 92
8: Cc1ccc(C)c(Nc2nc(-c3ccccc3)c3cc(Br)ccc3n2)c1
  105, 112
9: CCC(C)NC(=O)c1ccccc1NC(=O)C1CCN(S(=O)(=O)Cc2ccccc2)CC1 (stereo not given)
  110, 117
10: CCOC(=O)CC(NC(=O)Cn1nnc(-c2ccc(C(F)(F)F)cc2)n1)c1ccc(C)cc1 (stereo not given)
  100, 106

(further entries)
Screens in order: Polio RdRp inh, Polio RdRp inh intensity
11: COc1ccc(-c2noc(CSc3nnc(Cc4ccccc4)n3-c3ccccc3)n2)cc1OC
  97, 87
12: CC(C)c1ccc(Cc2cn3cc(-c4cc5ccccc5oc4=O)nc3s2)cc1
  107, 110
13: COc1ccccc1C(=O)NC1=NC(c2ccc(Br)cc2)CC(=O)N1 (stereo not given)
  109, 110
14: Cc1ccc(CNC(=O)NC2COc3ccccc3C2)cc1 (stereo not given)
  109, 111
15: CCCc1cnc2c(c1SCC(=O)NCc1ccc(C)cc1)c(=O)n(C)c(=O)n2C
  106, 110
16: COc1cc(C2CC(=O)N(Cc3ccc(F)cc3)c3ccccc3S2)cc(OC)c1OC (stereo not given)
  104, 103
17: O=C(CCc1ccccc1)NC1CC(=O)N(c2ccccc2)C1 (stereo not given)
  112, 111
18: CCc1ccc(CNC(=O)C(CC)n2ccc3cc(S(=O)(=O)N4CCCCC4)ccc32)cc1 (stereo not given)
  108, 115
19: CCc1ccc(-n2nc(CO)c(C(=O)NCc3cccnc3)n2)cc1
  110, 112
20: CC(=O)c1ccc(NC(=O)COc2ccccc2-c2nc(-c3ccc(C)cc3)no2)cc1
  111, 107

(continued)
Screens in order: Polio RdRp inh, Polio RdRp inh intensity
21: COc1ccccc1C(=O)n1nc(-c2ccccc2)nc1NCc1ccc(Cl)cc1
  101, 104
22: O=C(Cn1c(SCCOc2ccccc2)nc2ccccc21)N1CCOCC1
  81*, 66*
23: COc1ccc(CCNC(=O)C2CCCN(c3nc4c(C)cc(C)cc4s3)C2)cc1OC (stereo not given)
  108, 112
24: COCCCNC(=O)c1c(-c2ccccc2)c(-c2ccccc2)nn(C)c1=O
  103, 104
25: Cc1nn(CC(=O)N2CCN(c3ccccc3)CC2)c(=O)c2cc3cc(F)ccc3n12
  111, 114
26: CCCOc1ccc(-c2nn(-c3ccccc3)cc2C2NC(=O)NC(C)=C2C(=O)OC)cc1 (stereo not given)
  106, 110
27: CCSC1=NC2(CCN(C(=O)NC3CCCCC3)CC2)N=C1c1ccc(Cl)cc1
  111, 108
28: CCOC(=O)C1CCCN(c2nc3c(S(=O)(=O)c4ccc(C)c(C)c4)nnn3c3ccc(Cl)cc23)C1 (stereo not given)
  107, 112
29: Cc1cc(N2CCC(C)CC2)nc2ccc(NC(=O)Cc3c(F)cccc3Cl)cc12
  103, 104
30: CCN(Cc1ccccc1)S(=O)(=O)c1ccc(F)c(C(=O)Nc2cc(C(F)(F)F)ccc2Cl)c1
  103, 109

The list continues:
Screens in order: Polio RdRp inh, Polio RdRp inh intensity
31: N#C/C(=C/c1ccc(Cl)cc1)c1nc(-c2ccc(Br)cc2)cs1
  100, 101
32: COCCNC(=O)Cn1ccc2cc(S(=O)(=O)N3CCCCCC3)ccc21
  113, 110
33: COCCN1Cc2cccc(C(=O)Nc3ccc(C)cc3C)c2C1=O
  110, 112
34: CC1CCc2nc3ncn(Cc4ccc(Cl)cc4)c(=O)c3cc2C1 (stereo not given)
  106, 108
35: CCC(O)c1nc2ccccc2n1Cc1cc(C)ccc1C (stereo not given)
  110, 103
36: COc1ccc(N2CCN(C(=O)c3ccc(-c4nc(COc5ccccc5)c(C)o4)cc3)CC2)cc1
  101, 103
37: COc1ccc(C(=O)N2CCN(c3nc4c(C)c(Cl)ccc4s3)CC2)c(OC)c1
  104, 113
38: Cc1ccc(O)c(NC(=O)C2=CC(c3cccs3)=NS(=O)(=O)N2C)c1
  110, 111
39: O=C(C1CCC(Cn2c(=O)c3sccc3n(Cc3cccc(F)c3)c2=O)CC1)N1CCOCC1 (stereo not given)
  105, 107
40: Cc1ccc(C)c(CN2C(=O)C(O)(c3c[nH]c4ccccc34)c3ccccc32)c1 (stereo not given)
  100, 100

(listing goes on)
Screens in order: Polio RdRp inh, Polio RdRp inh intensity
41: Cc1ccc(Cl)cc1N1CCN(C(=O)Cn2ncc3c4ccccc4n(C)c3c2=O)CC1
  110, 112
42: COc1ccc(OC)c(CCNC(=O)c2nn(C)c3c2CSc2ccccc2-3)c1
  112, 116
43: CCC(C)NC(=O)c1cccc(NC(=O)c2nsc3ccccc23)c1 (stereo not given)
  110, 110
44: COc1ccc(OC)c(NC(=O)c2ccc(-c3nc(COc4ccccc4)c(C)o3)cc2)c1
  103, 112
45: Cc1ccc(NC(=O)c2nn(C)c3c2CS(=O)(=O)c2ccccc2-3)c(Cl)c1
  104, 110
46: CC1=C(C(=O)Nc2ccc(F)cc2F)C2(CCCCCC2)OC1=O
  103, 106
47: COc1ccc(Nc2cc(C)nc3c(C)c(C)ccc23)cc1
  99, 94
48: Cc1ccc(NC(=O)Cn2c(=O)n(Cc3nc(C)no3)c(=O)c3cc4c(cc32)OCO4)cc1
  112, 110
49: CC(=O)N1CCc2c(sc3c2c(=O)n(-c2cccc(Cl)c2)c(=O)n3Cc2ccc(F)cc2Cl)C1
  108, 104
50: COc1ccc(NC(=O)CCCN2C(=O)COc3ccc(C)cc32)cc1OC
  104, 107

Overlap with the part before: 3 entries, then new ones.
Screens in order: Polio RdRp inh, Polio RdRp inh intensity
48: Cc1ccc(NC(=O)Cn2c(=O)n(Cc3nc(C)no3)c(=O)c3cc4c(cc32)OCO4)cc1
  112, 110
49: CC(=O)N1CCc2c(sc3c2c(=O)n(-c2cccc(Cl)c2)c(=O)n3Cc2ccc(F)cc2Cl)C1
  108, 104
50: COc1ccc(NC(=O)CCCN2C(=O)COc3ccc(C)cc32)cc1OC
  104, 107
51: COc1ccc(Nc2oc(/C=C/c3cccc(OC)c3)nc2C#N)cc1
  101, 96
52: CC(=O)c1ccc(NC(=O)c2nn(C)c3c2CS(=O)(=O)c2ccccc2-3)cc1
  111, 111
53: COc1cc(NC(=O)CC(c2cccs2)N2Cc3ccccc3C2=O)cc(OC)c1OC (stereo not given)
  110, 111
54: CCc1ccc(Nc2nn3c(=O)c4cc5c(cc4nc3s2)OCO5)cc1
  106, 103
55: O=C(NCc1cccc(Br)c1)c1cccn1-c1nnc(N2CCCCC2)s1
  105, 109
56: COc1ccccc1CNC(=O)CSc1nc(=O)[nH]c2c1CCCC2
  108, 112
57: Cc1ccc(C(=O)Nc2ccccc2C(=O)OCc2cc(=O)n3nc(C4CC4)sc3n2)cc1
  109, 110
58: Cc1ccc(C)c(N2CCN(c3ncnc4c3nc3n4CCCC3)CC2)c1
  98, 95
59: N#Cc1ccc(CSc2nnc(-c3ccc(Br)cc3)o2)cc1
  108, 112
60: CCOC(=O)CSc1nc2cc3c(cc2c(=O)n1CCCC(=O)NCCc1ccc(OC)c(OC)c1)OCO3
  112, 115

More entries.
Screens in order: Polio RdRp inh, Polio RdRp inh intensity
61: O=C(Nc1ccc(F)cc1F)C(Cc1ccccc1)N1Cc2ccccc2C1=O (stereo not given)
  105, 106
62: Cc1cc(=O)c2cc(C(=O)Nc3ccc(C)c(C)c3)ccc2[nH]1
  106, 109
63: COc1cc(C2c3c(-c4cc(C)ccc4O)n[nH]c3C(=O)N2CCCO)ccc1OCCC(C)C (stereo not given)
  107, 110
64: Cc1ccccc1CNC(=O)C(=O)NCC(c1cccs1)S(=O)(=O)c1ccc(Cl)cc1 (stereo not given)
  109, 112
65: Cc1cccc(C(=O)Nc2nnc(S(=O)(=O)N3CCC(C)CC3)s2)c1
  113, 115
66: Cc1cccc(-c2nc(-c3ccc4c(c3)[nH]c(=O)n4C)no2)c1
  109, 114
67: CC(C)Oc1ccc(C(=O)N2CC(=O)Nc3ccc(F)cc3C2c2ccc(F)cc2)cc1 (stereo not given)
  107, 111
68: CCC(=O)NCC(c1ccc2c(c1)OCO2)N1CCN(c2ccccc2)CC1 (stereo not given)
  114, 106
69: Cc1ccc2c(c1)C(=O)C(=O)N2Cc1ccc(OCCC(C)C)cc1
  105, 107
70: Cc1ccc(Cn2c(SCC(=O)C(C)(C)C)nc3ccsc3c2=O)cc1
  102, 103

Following part:
Screens in order: Polio RdRp inh, Polio RdRp inh intensity
71: CCn1cc(C(=O)NCc2ccccc2Cl)c(=O)c2cc(S(=O)(=O)N3CCc4ccccc4C3)ccc21
  107, 110
72: COc1ccc(OC)c(/C=C(/C#N)c2nc(-c3ccc(-c4ccccc4)cc3)cs2)c1
  99, 152
73: CCOC(=O)C1CCCN(C(=O)Cn2ncc3c([nH]c4ccc(C)cc43)c2=O)C1 (stereo not given)
  101, 108
74: CCN1CCc2c(sc(-n3cccc3)c2C(C)NC(=O)Nc2ccccc2C)C1 (stereo not given)
  117, 124
75: Cc1ccc(N(Cc2cccs2)C(=O)c2ccco2)cc1
  107, 107
76: CCOC(=O)c1cccc(NS(=O)(=O)c2cc3[nH]c(=O)c(=O)[nH]c3cc2C)c1
  108, 116
77: Cc1cn(S(=O)(=O)c2ccc(F)c(Cl)c2)cn1
  106, 111
78: Cc1ccc(C)c(NC(=O)CSc2nnc(CNC(=O)c3ccccc3)n2-c2ccccc2)c1
  102, 105
79: Cc1cc2n(n1)CCCN2C(=O)Nc1ccc(Cl)cc1
  105, 112
80: Cc1ccccc1OCC(=O)Nc1ccc2nc(SCC(N)=O)sc2c1
  111, 116

Additional compounds.
Screens in order: Polio RdRp inh, Polio RdRp inh intensity
81: CCC1CCCCN1CCCNC(=O)c1c(O)nc2ccccn2c1=O (stereo not given)
  108, 115
82: Cn1cc(S(=O)(=O)c2cccc(Cl)c2)c(=O)c2cc(F)c(N3CCCCCC3)cc21
  105, 110
83: CCc1cccc(NC(=O)CCc2c(C)nc3c(-c4ccccc4)c(C)nn3c2C)c1
  110, 109
84: Cc1oc2ncnc(N3CCOCC3)c2c1C(=O)N(Cc1ccccc1)C(C)C
  102, 104
85: COC(=O)c1sc(NC(=O)c2cc3nc(-c4ccc(Br)cc4)cc(C(F)(F)F)n3n2)c(C(=O)OC)c1C
  110, 111
86: Cc1cc(C)cc(NC(=O)CSCc2cc(=O)c3cc(Cl)ccc3[nH]2)c1
  106, 112
87: CCOc1ccc(CNS(=O)(=O)c2cc(-c3cc(C)no3)ccc2C)cc1OC
  103, 112

Among those listed so far, 18 have a Cl atom:
Screens in order: Polio RdRp inh, Polio RdRp inh intensity
6: COc1ccc(NC(=O)C2CCN(S(=O)(=O)c3c(C)noc3/C=C/c3cccs3)CC2)cc1Cl
  105, 112
21: COc1ccccc1C(=O)n1nc(-c2ccccc2)nc1NCc1ccc(Cl)cc1
  101, 104
27: CCSC1=NC2(CCN(C(=O)NC3CCCCC3)CC2)N=C1c1ccc(Cl)cc1
  111, 108
28: CCOC(=O)C1CCCN(c2nc3c(S(=O)(=O)c4ccc(C)c(C)c4)nnn3c3ccc(Cl)cc23)C1 (stereo not given)
  107, 112
29: Cc1cc(N2CCC(C)CC2)nc2ccc(NC(=O)Cc3c(F)cccc3Cl)cc12
  103, 104
30: CCN(Cc1ccccc1)S(=O)(=O)c1ccc(F)c(C(=O)Nc2cc(C(F)(F)F)ccc2Cl)c1
  103, 109
31: N#C/C(=C/c1ccc(Cl)cc1)c1nc(-c2ccc(Br)cc2)cs1
  100, 101
34: CC1CCc2nc3ncn(Cc4ccc(Cl)cc4)c(=O)c3cc2C1 (stereo not given)
  106, 108
37: COc1ccc(C(=O)N2CCN(c3nc4c(C)c(Cl)ccc4s3)CC2)c(OC)c1
  104, 113
41: Cc1ccc(Cl)cc1N1CCN(C(=O)Cn2ncc3c4ccccc4n(C)c3c2=O)CC1
  110, 112
45: Cc1ccc(NC(=O)c2nn(C)c3c2CS(=O)(=O)c2ccccc2-3)c(Cl)c1
  104, 110
49: CC(=O)N1CCc2c(sc3c2c(=O)n(-c2cccc(Cl)c2)c(=O)n3Cc2ccc(F)cc2Cl)C1
  108, 104
64: Cc1ccccc1CNC(=O)C(=O)NCC(c1cccs1)S(=O)(=O)c1ccc(Cl)cc1 (stereo not given)
  109, 112
71: CCn1cc(C(=O)NCc2ccccc2Cl)c(=O)c2cc(S(=O)(=O)N3CCc4ccccc4C3)ccc21
  107, 110
77: Cc1cn(S(=O)(=O)c2ccc(F)c(Cl)c2)cn1
  106, 111
79: Cc1cc2n(n1)CCCN2C(=O)Nc1ccc(Cl)cc1
  105, 112
82: Cn1cc(S(=O)(=O)c2cccc(Cl)c2)c(=O)c2cc(F)c(N3CCCCCC3)cc21
  105, 110
86: Cc1cc(C)cc(NC(=O)CSCc2cc(=O)c3cc(Cl)ccc3[nH]2)c1
  106, 112

Assay outcomes from PubChem.
